Screening data deposited in PubChem BioAssay by National Center for Advancing Translational Sciences (NCATS).
D2 agonist: activates the human D2 dopamine receptor. P14416. DiscoveRx PathHunter D2 beta-arrestin, luminescence, 90 min; 100% = 57 uM dopamine signal. activation, % (concentration not given with the values). 360,000 tested, 0.084% active; in the data active = activation above about 40%; inconclusive = about 15% to 40%; inactive = below about 15%; further: compound concentration not given in the record; the text of the record calls up to 30% inactive
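DiscoveRx PathHunter D2 beta-arrestin cells (2,100/well) attached overnight, then compound-stimulated 90 min at 37 C in HBSS/10 mM HEPES/0.1% Tween-20 buffer; beta-galactosidase complementation read by luminescence after 1 h at ambient temperature. Dopamine 57 uM final (EC100) as control.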
CtBP-E1A inh: blocks the CtBP interaction with E1A; AlphaScreen GST-E1A/His-CtBP binding, 1536-well; active compounds read low; control for the full effect not named in the record; activity change, % (no concentration beside the values); 340,000 tested, 0.49% active; in the data active means activity change below about -65%; inconclusive means about -30% to -65%; inactive means above about -30%; further: on the % scale 0 is the no-effect control and ±100 the full control effect
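GST-E1A and His-tagged CtBP (125 nM each as 5X stock) were preincubated with pin-transferred compound for 2 h at 37 °C in the dark, then glutathione donor and nickel acceptor beads were added for 1 h before AlphaScreen reading.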
TRPML1 ag: human mucolipin-1 channel agonism | 410,000 tested, 0.12% active | TRPML1-expressing cells, Ca2+ dye fluorescence, FDSS; host cell line not named in the record; reference of the full effect not given here | activation, % (test concentration not listed) | AID 624414; in the data active = activation above about 50%; inconclusive = about 30% to 50%; inactive = below about 30%; further: 0% is about no effect; the text of the record puts the active cut at 80%
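Tetracycline-induced TRPML1-DL cells are seeded and incubated overnight before loading with a no-wash Ca2+ dye and quencher. Agonist activity is taken from the 110 s fluorescence read following compound pin-transfer on an FDSS, before EC80 54-4 challenge.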
Six1-Eya2 blk: blocks human Six1 binding to Eya2; activity change, % (concentration not given with the values); Q15475+O00167; AlphaScreen GST-Six1/His-Eya2 binding, biochemical; active compounds read low; control for the full effect not named in the record; AID 651725; 360,000 tested, 0.56% active; in the data active = activity change below about -65%; inconclusive = about -30% to -65%; inactive = above about -30%; further: on the % scale 0 is the no-effect control and ±100 the full control effect
Target sequence (O00167 whole entry, looked up): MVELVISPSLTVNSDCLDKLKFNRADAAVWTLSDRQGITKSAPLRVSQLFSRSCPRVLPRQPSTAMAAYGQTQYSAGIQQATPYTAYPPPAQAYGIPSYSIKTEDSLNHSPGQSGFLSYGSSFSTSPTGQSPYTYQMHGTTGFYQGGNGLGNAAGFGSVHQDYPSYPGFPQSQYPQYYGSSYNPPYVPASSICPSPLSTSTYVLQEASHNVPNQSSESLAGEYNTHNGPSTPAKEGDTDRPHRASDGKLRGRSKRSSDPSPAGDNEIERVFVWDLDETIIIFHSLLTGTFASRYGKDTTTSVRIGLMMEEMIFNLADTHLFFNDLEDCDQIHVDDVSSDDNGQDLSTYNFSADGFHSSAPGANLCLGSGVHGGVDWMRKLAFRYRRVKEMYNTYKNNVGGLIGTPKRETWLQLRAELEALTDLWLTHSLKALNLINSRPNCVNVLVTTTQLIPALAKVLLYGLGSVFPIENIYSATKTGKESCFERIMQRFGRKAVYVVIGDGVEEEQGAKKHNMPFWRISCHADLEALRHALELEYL
Target sequence (Q15475 whole entry, looked up): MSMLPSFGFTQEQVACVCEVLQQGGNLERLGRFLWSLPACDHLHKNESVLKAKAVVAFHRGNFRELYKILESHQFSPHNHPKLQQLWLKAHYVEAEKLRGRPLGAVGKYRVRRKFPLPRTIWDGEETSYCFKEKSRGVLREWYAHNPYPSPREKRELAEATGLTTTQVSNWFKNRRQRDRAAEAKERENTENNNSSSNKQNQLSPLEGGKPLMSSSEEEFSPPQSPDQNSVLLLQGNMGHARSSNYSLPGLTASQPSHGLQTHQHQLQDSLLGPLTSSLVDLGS
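GST-Six1 + His-Eya2 (5X stock: 250/500 nM); Tris pH 8.0, 300 mM NaCl, 0.05% BSA, 0.02% Tween 20; GSH donor/Ni acceptor beads; 1 h 37 °C dark; AlphaScreen readout.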
TRPML1 inh: human mucolipin-1 channel inhibition | 390,000 tested, 0.02% active | activity change, negative = inhibition, % (test concentration not listed) | TRPML1-inducible cells, Ca2+ dye fluorescence, FDSS; active compounds read low; inhibition of EC80 agonist-evoked calcium signal | Q9GZU1; in the data active means activity change below about -50%; inconclusive means about -30% to -50%; inactive means above about -30%;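 further: stimulus is agonist 54-4 at its EC80 concentration; on the % scale 0 is the no-effect control and ±100 the full control effect; compound concentration not given in the record; the text of the record puts the active cut at -80%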
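TRPML1-DL cells, Tet-induced overnight (~16 h, 37 °C) at 1,500 cells/well, were loaded with Ca8 no-wash dye plus quencher for 45-90 min at room temperature. Compounds were pinned during FDSS kinetic reading; agonist 54-4 at EC80 (4 uM final) then added.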
PINK1 modulator: changes PINK1 expression; PINK1 immunofluorescence, high-content cytometry, 24 h; Potency, µM (top dose mostly 76.6 µM), for inactives: at the top dose activation (PINK1 increase), usual class: activators; 410,000 tested, 0.2% active; AID 624263; active = well fitted activation curve with a large enough effect; inconclusive = small, poorly fitted or top-dose-only effect; inactive = flat fitted curve, though single readings scatter; cell line not stated here;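 further: potency means the concentration at half of the fitted maximal effect; % of control where 0% means no effect; nearly all actives have a fitted effect of over 65% in size; a mitochondrial uncoupler was the plate control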
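Measures PINK1 amount and localization on or inside mitochondria by immunofluorescence. Stable cells get compounds at 5 concentrations for 24 hours before fixation and staining; CCCP controls included.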
Numbers without * were called inactive; ? = inconclusive; nt = not tested or not shown; [ ] = another dose, or the depositor's remark. Rows are unselected (roughly 1% active in at least one column).

SMILES | D2 agonist | CtBP-E1A inh | TRPML1 ag | Six1-Eya2 blk | TRPML1 inh | PINK1 modulator
CCOC(=O)Cn1c(=NC(=O)C2CC2)sc2c(C)cc(C)cc21 | 0.3 | nt | 0.8 | -1 | -9 | 1.4%
C(=N\n1cnnc1)/c1ccc(N2CCOCC2)cc1 | 0.3 | 2 | 1.9 | 2 | 14 | -1.6%[38.3 µM]
Fc1ccc(N2CCN(c3nnnn3-c3ccccc3)CC2)cc1 | -0.1 | -6 | nt | 0 | nt | -0.6%
C=CCn1c(CNC(=O)c2ccccc2C)nnc1SCC(=O)NC1CCCC1 | -2.0 | -4 | 0.1 | -6 | -3 | 0.2%
Cc1c(C(=O)NC2CCCCC2)oc2ccccc12 | 12 | -8 | 2.5 | 10 | 32 | 4.5%
O=c1[nH]c2ccccc2c(=O)n1Cc1ccccc1 | -5.1 | 8 | 2.9 | 9 | 21 | -2.1%
COc1ccc(C)cc1NC(=O)C1CCC(CNS(=O)(=O)c2ccc3c(c2)CCCC(=O)N3)CC1 (stereo not given) | nt | nt | -0.1 | nt | -18 | 1.7%
COC(=O)Nc1nnc(-c2ccc(OC)cc2)s1 | 2.1 | -2 | 1.7 | 4 | 37 | 3.2%
O=C(Nc1cccnc1)c1scc2c1OCCO2 | -1.1 | 2 | -0.7 | 3 | -3 | -0.5%
CCOC(=O)/C(C#N)=C/Nc1ccccc1NS(=O)(=O)c1cccc(C(C)=O)c1 | 1.3 | 9 | -0.4 | 0 | 7 | -3.6%
Cn1cc(S(=O)(=O)N2CCCCCC2)cc1C(=O)NCc1ccc(Cl)cc1 | nt | nt | 2.4 | nt | -12 | 1.2%
Cc1onc(-c2ccccc2Cl)c1C(=O)Nc1cccc(-c2nc3ncccn3c2C)c1 | -1.5 | -16 | 13 | -8 | -11 | -1.4%[38.3 µM]
COc1ccccc1N1CCN(C(=O)C(OC(C)=O)c2ccccc2)CC1 (stereo not given) | 2.6 | 4 | -0.8 | -2 | -12 | -0.9%
O=C(C[C@@H]1C/C=C\C[C@@H](NC(=O)OCC2c3ccccc3-c3ccccc32)C(=O)OCCNC1=O)N[C@@H](CO)Cc1ccccc1 | -1.3 | 2 | -0.3 | -1 | 7 | 0.0%
O=C(/C=C\c1ccc2c(c1)OCO2)Nc1c2c(nn1-c1ccc(Cl)cc1)CSC2 | 0.2 | 0 | -0.1 | -11 | ? | 3.0%
CCCSC1=N/C(=C\c2ccsc2)C(=O)S1 | -3.9 | -3 | -0.9 | 0 | -3 | -1.1%
COc1ccc(OC)c(N=Cc2c(O)[nH]c3ccccc23)c1 | -4.8 | -9 | 0.2 | -1 | -2 | 7.6%
CCN(CCCNC(=O)C1CCCN(S(=O)(=O)CC)C1)c1cccc(C)c1 (stereo not given) | 0.4 | -5 | -0.2 | -1 | 8 | 0.9%
COC(=O)[C@@]1(Cc2ccccc2)[C@H]2C(=O)N(C)C(=O)[C@H]2[C@H]2CN=C(SCc3ccc(C)cc3)N21 | -1.4 | 5 | 0.4 | 1 | 24 | 0.1%
O=S(=O)(NN=C1CCCCCCC1)c1ccc(Br)cc1 | -4.6 | 1 | -0.4 | 26 | 2 | -1.3%
O=C(CN1C(=O)c2ccccc2S1(=O)=O)NCc1cccs1 | -2.9 | 1 | -0.5 | 0 | -13 | -0.6%
O=C1c2cccc3cccc(c23)C(=O)N1Cc1ccco1 | 1.1 | nt | -0.6 | 9 | 0 | 2.9%
CCCC(=O)Nc1cc(C)c(NC(=O)c2cccs2)cn1 | -3.3 | 7 | -0.6 | 1 | 5 | 0.6%
C#CCOCCOCCOCCNc1nc(N2CCOCC2)nc(N2CCN(C(=O)[C@H](Cc3ccc(O)cc3)n3cc([C@@H](N)C(C)CC)nn3)CC2)n1 (stereo not given in full) | -4.3 | -25 | 1.5 | 2 | -6 | 0.4%
COc1ccccc1/C=C/C(=O)OCC(=O)NNC(=O)c1ccccc1 | -7.5 | 3 | -1.7 | 5 | 1 | -2.0%
COc1ccc(Cc2noc(CN3CCN(C4CCc5ccccc5C4)CC3)n2)cc1OC (stereo not given) | -1.5 | -8 | 0.1 | -3 | 11 | 0.3%
CCC1CCCCN1C(=O)c1sc2nc(C)nc(N(CC)CC)c2c1C (stereo not given) | 3.1 | nt | 1.6 | 0 | 14 | 7.5%
COc1cc(Cl)c(C)cc1NC(=O)c1cccc(OC)c1OC | -3.0 | -1 | 0.8 | 13 | 57 | 1.7%
Cc1cc(C)c2oc(-c3ccc(C)c(NC(=S)NC(=O)/C=C/c4ccco4)c3)nc2c1 | -1.5 | -1 | -0.7 | -7 | 27 | ?
COc1ccccc1N1CCN(C(=O)c2c(-c3ccccc3)noc2C)CC1 | -1.3 | 3 | 4.8 | 6 | 22 | 14%
Cc1ccc(C)c(-n2c(-c3ccco3)n[nH]c2=S)c1 | -2.0 | 5 | 1.0 | 6 | 3 | 5.8%
NC(=O)c1ccc(SCC(=O)OCC(=O)NCC2CCCCC2)c([N+](=O)[O-])c1 | -0.6 | 14 | -0.3 | -15 | 0 | 0.7%
Cc1ccc(-c2nn(-c3ccccc3)cc2C(=O)N2CCOCC2)cc1C | -4.0 | 3 | -0.8 | 0 | -5 | 1.8%
CCOc1ccccc1N1CC(C(=O)Nc2cccc(S(=O)(=O)N3CCCCC3)c2)CC1=O (stereo not given) | -3.8 | -5 | -0.5 | 1 | 14 | 1.6%
O=c1c2ccccc2ncn1CCc1ccncc1 | -2.1 | 6 | -0.3 | 7 | -12 | -3.1%
C=C(C)C(=O)OCCCCCCOc1ccc(C(=O)O)cc1 | -2.4 | 5 | -0.4 | ? | 10 | -1.7%
CN(C)CCCNC(=O)C[C@H]1C[C@H](C(=O)N2CCOCC2)[C@@]2(CCC3CCCC3)c3[nH]c4cc(-c5ccco5)ccc4c3CCN2C1=O | 1.6 | 10 | 0.9 | -2 | -6 | 0.2%
COc1cc(/C=C/C(=O)O)cc(S(=O)(=O)Nc2cc(C(F)(F)F)ccc2N2CCOCC2)c1OC | 5.5 | 2 | 0.3 | -5 | 9 | 0.9%
O=C(C1=C[C@H](c2coc3ccccc3c2=O)C[C@H](OCCCCO)O1)N1CCN(Cc2ccccc2)CC1 | -3.8 | -7 | -0.1 | -3 | -6 | 0.9%
CCCCN(C(=O)CSc1nnc(Nc2ccccc2)s1)c1c(N)n(CCC)c(=O)[nH]c1=O | -0.9 | nt | -0.4 | 4 | -12 | -1.6%

Retrieved by compound from the list above (four):
SMILES | D2 agonist | CtBP-E1A inh | TRPML1 ag | Six1-Eya2 blk | TRPML1 inh | PINK1 modulator
C=C(C)C(=O)OCCCCCCOc1ccc(C(=O)O)cc1 | -2.4 | 5 | -0.4 | ? | 10 | -1.7%
Cc1ccc(C)c(-n2c(-c3ccco3)n[nH]c2=S)c1 | -2.0 | 5 | 1.0 | 6 | 3 | 5.8%
CCOc1ccccc1N1CC(C(=O)Nc2cccc(S(=O)(=O)N3CCCCC3)c2)CC1=O (stereo not given) | -3.8 | -5 | -0.5 | 1 | 14 | 1.6%
COc1cc(Cl)c(C)cc1NC(=O)c1cccc(OC)c1OC | -3.0 | -1 | 0.8 | 13 | 57 | 1.7%

Additional records follow:
SMILES | D2 agonist | CtBP-E1A inh | TRPML1 ag | Six1-Eya2 blk | TRPML1 inh | PINK1 modulator
Cc1cccc(OCC(=O)NNC(=O)c2cc(S(=O)(=O)N(C)C)ccc2N2CCCC2)c1 | 6.3 | 1 | -0.1 | 3 | -9 | -0.4%
CC(=O)Nc1ccc(/C=C/c2ccc3cccc([N+](=O)[O-])c3n2)cc1 | -9.6 | -16 | nt | -12 | nt | 6.3%
Cc1ccccc1Cc1n[nH]c(=S)n1N | -4.6 | 12 | 0.7 | 10 | 19 | ?
CCOC(=O)c1nc2cc3n(c(C)c-2c1C)C(C)C(C)=C3C (stereo not given) | -4.1 | -11 | 0.1 | -17 | -12 | 1.1%
COc1cc(N=Cc2c(CO)cnc(C)c2O)cc(OC)c1OC | 6.2 | nt | nt | -3 | nt | 3.4%
Cc1ccc(Cl)cc1Nc1nc(N2CCOCC2)nc(N2CCOCC2)n1 | 1.7 | 3 | -1.2 | 3 | 3 | 0.4%
Cc1nc2n[nH]c(N)c2nc1C | -6.3 | -1 | -0.4 | -6 | -2 | -1.0%
COc1ccc(OCCC(=O)OCC(=O)NCc2ccc(F)cc2)cc1 | -4.0 | -1 | 0.6 | 0 | -14 | 0.9%
COC(=O)c1ccc(NC(=O)CN(C)S(=O)(=O)c2ccc(Br)s2)cc1 | nt | nt | 3.4 | nt | 19 | -0.6%
Cc1cc(OCC(=O)NC(Cc2c[nH]c3ccc(O)cc23)C(=O)O)c2c(C)c(C)c(=O)oc2c1 (stereo not given) | 9.9 | -7 | nt | -14 | nt | 0.5%
CC(=O)Nc1ccc(Cl)cc1-c1ccccc1 | 1.5 | 3 | -0.4 | 7 | 9 | 2.4%
COc1ccc(OCC(=O)N2CCC(Cc3ccccc3)CC2)cc1 | -12 | 0 | 0.3 | 5 | -6 | 1.2%
O=C(Nc1cnc2sccn2c1=O)c1ccccc1Cl | -1.2 | 2 | 0.9 | 1 | 17 | 3.2%[38.3 µM]
C[n+]1cccc(C2C(C#N)=C(N)Oc3c2ccc2ccccc32)c1 (stereo not given) | 4.7 | -5 | 0.4 | -3 | 12 | 0.8%
COc1ccc(S(=O)(=O)Nc2ccccc2C(=O)NCc2ccco2)cc1 | -1.2 | -1 | -0.2 | -6 | -13 | 5.7%
COc1ccc(OC)c(NC(=O)C2(C)CCN2C(=O)Cc2ccc(Cl)cc2Cl)c1 (stereo not given) | -1.4 | -11 | -0.7 | -16 | nt | -0.3%
Cc1cc(Cl)ccc1OCC(=O)Nc1c(Cl)ccc2nsnc12 | nt | nt | 2.5 | nt | 17 | 2.9%
COc1ccc(-n2c(C)cc3cc(OC(C)=O)ccc32)cc1 | 1.4 | -15 | 2.9 | 1 | 13 | -0.5%
O=C(CS(=O)(=O)c1cccc2nsnc12)NCc1ccccc1 | nt | nt | 0.2 | nt | -21 | -3.5%
Cc1ccc(-c2nnn3c2nc(NCC(C)c2ccccc2)c2ccccc23)cc1 (stereo not given) | nt | nt | -1.1 | nt | -1 | 0.4%
O=C(NC1CCCCCCC1)c1ccc(Br)o1 | -2.8 | -3 | -0.9 | -6 | 5 | 2.1%
COC(=O)c1c[nH]n2c(=O)cc(CCl)nc12 | -0.2 | -4 | 1.5 | -5 | -5 | 2.3%[38.3 µM]
O=C(CSc1nnc(CNC(=O)c2ccccc2F)o1)Nc1ccc2c(c1)OCO2 | -3.6 | 8 | 0.1 | 0 | 13 | 0.5%
NC(=O)c1cccc(Nc2nc(C(N)Cc3ccc(C(F)(F)F)cc3)cs2)n1 (stereo not given) | 5.3 | -6 | 1.5 | -7 | nt | -1.3%
Cc1ccc(OCC(=O)c2c(O)c3ccccc3oc2=O)cc1C | 2.0 | 5 | -0.1 | -1 | 12 | 3.6%
COc1ccccc1CC(=O)Nc1ccc(F)cc1F | 1.6 | nt | 0.5 | -1 | -10 | 0.7%
O=C(CSc1nnnn1-c1ccc(F)cc1)c1ccc(O)c(O)c1 | -1.2 | 0 | 1.9 | 14 | 17 | -0.8%
